Screening results (PubChem)
Arbovirus anti – antivirals against arbovirus infection. arbovirus infection cell-based antiviral screen. inhibition, % at 10 µM. 200,000 compounds, 0.37% hits;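 active = inhibition from about 30%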;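 also: bluetongue infection of BSR cells; cell survival read as ATP light after 72 h; 0% = infected wells without compound and 100% = uninfected wells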
RecA splice inh – inhibitors of M. tuberculosis RecA intein splicing. P9WHJ3. cell-free RecA intein splicing, fluorescence. inhibition, %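 (about 9 µM by stock and volumes)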. 290,000 compounds, 0.75% hits. AID 2221; in the data active = inhibition above about 30%; inconclusive = no clear call, values can overlap the other calls;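 also: 0% = vehicle wells and 100% = reference inhibitor control wells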
Target sequence (P9WHJ3 whole entry, looked up, canonical isoform): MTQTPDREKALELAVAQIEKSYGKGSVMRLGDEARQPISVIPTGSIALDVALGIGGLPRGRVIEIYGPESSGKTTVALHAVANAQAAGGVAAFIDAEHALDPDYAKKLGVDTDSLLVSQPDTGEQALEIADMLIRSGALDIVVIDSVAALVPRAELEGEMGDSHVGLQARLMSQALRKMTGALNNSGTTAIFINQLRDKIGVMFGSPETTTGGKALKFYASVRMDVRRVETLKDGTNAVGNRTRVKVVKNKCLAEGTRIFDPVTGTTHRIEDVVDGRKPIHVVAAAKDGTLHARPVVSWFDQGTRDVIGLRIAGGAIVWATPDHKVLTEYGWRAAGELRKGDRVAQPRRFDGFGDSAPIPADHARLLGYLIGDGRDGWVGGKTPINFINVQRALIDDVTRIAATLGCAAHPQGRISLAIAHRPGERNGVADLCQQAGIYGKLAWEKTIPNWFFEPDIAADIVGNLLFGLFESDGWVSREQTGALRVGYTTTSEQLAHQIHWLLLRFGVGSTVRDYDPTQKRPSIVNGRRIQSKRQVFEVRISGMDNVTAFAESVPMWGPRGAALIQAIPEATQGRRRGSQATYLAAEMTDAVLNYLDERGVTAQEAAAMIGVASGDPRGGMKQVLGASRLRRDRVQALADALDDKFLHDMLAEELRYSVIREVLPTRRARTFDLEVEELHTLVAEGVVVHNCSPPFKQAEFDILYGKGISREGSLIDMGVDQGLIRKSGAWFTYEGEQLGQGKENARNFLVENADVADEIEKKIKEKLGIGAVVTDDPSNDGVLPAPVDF
YopH inh – YopH (Yersinia) phosphatase inhibition; fluorescence Ex485/Em525; inhibition, %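 (about 10 µM by stock and volumes)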; 140,000 compounds, 0.16% hits; AID 898;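 active = inhibition of 50% or more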;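 also: controls were vehicle for no effect and minimum signal wells for full effect; inactives centre near -20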
Mtb H37Rv – M. tuberculosis H37Rv growth inhibitors, H37Rv strain (AID 1626) | M. tuberculosis H37Rv growth inhibition; higher % means a stronger effect | one-dose inhibition, % at 10 µM; IC50 in µM for titrated hits | 220,000 compounds, 0.95% hits;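 active = confirmed in a dose series; inconclusive = inhibition above 80% but not taken into the dose series; inactive = below 80% or under 30% at every dose of the series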;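 also: bacteria incubated seven days before Alamar blue readout; 0% = bacteria only wells and 100% = bacteria with antibiotic wells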
Mtb bLac sens – beta-lactam sensitization of Mtb H37Rv; M. tuberculosis H37Rv growth with meropenem, percent inhibition; hits of this screen are not shown here; inhibition, % at 25 µM; 330,000 compounds, 0.27% hits; AID 434955;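 active = about 74% or more and at least 40 points above the plate without the antibiotic, then above 30% in a dose series; inconclusive = first-round hits that could not be retested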;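 also: growth measured after seven days incubation then overnight dye step; 0% = bacteria only wells and 100% = bacteria with antibiotic; twin plates without the antibiotic show which effects depend on it; some results filed as inactive read as strong as hits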
Arbovirus anti repeat – also measured in Arbovirus anti; calls as there; inhibition, %; measured here: 10K subset replicate screen; many hits read low in the repeat;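 first of two repeat runs on a subset; 0% = infected and 100% = uninfected wells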
Numbers without * were called inactive.

For Cc1ccccc1NC(=S)N(C)C1(c2ccccc2Cl)CCCCC1=O (stereo unspecified) the results were Arbovirus anti -2, RecA splice inh 4.0, YopH inh -14, Mtb H37Rv 0% and Mtb bLac sens -10.
CC(Sc1n[nH]c(N)n1)C(=O)Nc1ccc(Cl)cn1 (stereo unspecified) was read as Arbovirus anti 4, RecA splice inh 0.9, Mtb H37Rv 0% and Mtb bLac sens -7.
Cc1cccc(C)c1NS(=O)(=O)c1ccc2c(c1)C(=O)c1ccccc1C2=O was read as Arbovirus anti -15, RecA splice inh -4.5, YopH inh -16, Mtb H37Rv 4% and Mtb bLac sens 2.
Screening Cc1cccc(C(=O)Nc2ccccc2N2CCN(c3ccc(F)cc3)CC2)c1 returned Arbovirus anti -1, RecA splice inh -1.6, YopH inh 0, Mtb H37Rv -8% and Mtb bLac sens 2.
Screening CCOc1ccc(S(=O)(=O)N2CCOCC2)cc1NC(=O)c1ccccc1F returned RecA splice inh 3.4 and Mtb bLac sens -1.
`O=C(COc1ccccc1)Nc1ccccc1N1CCN(c2ccc(F)cc2)CC1` gave Arbovirus anti 2, RecA splice inh 2.1, YopH inh -39, Mtb H37Rv 15% and Mtb bLac sens 3.
CC(C)CN(C(=O)CSc1nncn1-c1ccccc1)c1c(N)n(CC(C)C)c(=O)[nH]c1=O was read as Arbovirus anti 5, RecA splice inh -2.8, Mtb H37Rv 6% and Mtb bLac sens 0.
For CCOc1ccc(S(=O)(=O)Nc2cccc(C(=O)NCC(c3ccco3)N(C)C)c2)cc1 (stereo unspecified) the results were RecA splice inh -3.4 and Mtb bLac sens -14.
Cn1c(C(O)c2ccccc2)nc(Cl)c1Cl (stereo unspecified) was read as Arbovirus anti 0, RecA splice inh -3.2, YopH inh -37, Mtb H37Rv 3% and Mtb bLac sens 3.
CCOC(=O)c1ccc2nc(C)c(CC)c(Cl)c2c1 was read as Arbovirus anti -5, RecA splice inh 4.3, Mtb H37Rv 6% and Mtb bLac sens 60.
CCCc1nn(C)c2c(=O)[nH]c(-c3cc(S(N)(=O)=O)ccc3OCC)nc12 was read as RecA splice inh -0.8 and Mtb bLac sens 0.
For CCOCCCN1CN(Cc2ccco2)CNC1=S the results were Arbovirus anti -7, RecA splice inh 0.1, Mtb H37Rv -4% and Mtb bLac sens 0.
Screening CCOC(=O)N1CCN(C(=O)CCNS(=O)(=O)c2ccc3c(c2)c(=O)n(C)c(=O)n3C)CC1 returned Arbovirus anti 1, RecA splice inh 0.0, Mtb H37Rv -4% and Mtb bLac sens -6.
Screening COC(=O)C(C)Sc1nc2c([nH]c3ccccc32)c(=O)n1C (stereo unspecified) returned Arbovirus anti -4, RecA splice inh -1.4, YopH inh -31, Mtb H37Rv -2% and Mtb bLac sens -1.
`O=C(O)c1ccccc1C(=O)N(c1ccccc1)c1ccccc1` gave RecA splice inh 0.6 and Mtb bLac sens -12.
`COc1c(Cl)cc(Cl)cc1C(=O)Nc1ccc(CN2CCCCC2)cc1` gave Arbovirus anti -14, RecA splice inh 0.2, Mtb H37Rv -3% and Mtb bLac sens 2.
CCCn1c(-c2ccccc2)nc2c(=O)n(C)c(=O)[nH]c21 was read as Arbovirus anti 3, RecA splice inh 0.2, YopH inh -14 and Mtb bLac sens -11.
Screening COc1ccc(/C=C/C(=O)N2CCN(c3ccccn3)CC2)c(OC)c1OC returned RecA splice inh 0.2 and Mtb bLac sens 1.
`Cc1occc1-c1nnc(SCC(=O)Nc2nc3ccccc3s2)o1` gave Arbovirus anti -12, RecA splice inh -0.9, YopH inh -14, Mtb H37Rv -3% and Mtb bLac sens 5.
Screening Cc1ccc(-n2nc(C(=O)c3ccccc3)n3c(=O)c(Cc4ccccc4)nnc23)cc1 returned Arbovirus anti -20, RecA splice inh -0.7, YopH inh -8, Mtb H37Rv 2% and Mtb bLac sens 2.
`COc1ccc(S(=O)(=O)Nc2ccc(-n3cccc3)cc2)cc1` gave Arbovirus anti 4, RecA splice inh 3.9, Mtb H37Rv inconclusive and Mtb bLac sens -4.
Cc1cc(C)nc(SCc2ccc(C(=O)N/N=C3\CC(C)CC(C)(C)C3)cc2)n1 (stereo unspecified) was read as Arbovirus anti -1, RecA splice inh 0.2, YopH inh -28, Mtb H37Rv -1% and Mtb bLac sens 3.
`O=C(CO/N=C/c1ccccc1Cl)N1CCCc2ccccc21` gave Arbovirus anti 8, RecA splice inh 2.6, YopH inh -36, Mtb H37Rv 4% and Mtb bLac sens -2.
`Cc1[nH]nc2c1C1(CCN(Cc3ccccc3)CC1)C(C#N)=C(N)O2` gave Arbovirus anti 0, RecA splice inh 85*, YopH inh -7, Mtb H37Rv 4% and Mtb bLac sens -8.
O=C(NC1CCCc2ccccc21)C1CCN(c2nnc(-n3cccc3)s2)CC1 (stereo unspecified) was read as Arbovirus anti -1, RecA splice inh 1.9, YopH inh 18, Mtb H37Rv 9%, Mtb bLac sens -6 and Arbovirus anti repeat -4.
`CCCOc1ccccc1C(=O)NC(CO)C(=O)O` (stereo unspecified) gave Arbovirus anti 0, RecA splice inh -2.2, YopH inh -11, Mtb H37Rv -2% and Mtb bLac sens -13.
Screening c1ccc(OCCSc2nc3ccccc3[nH]2)cc1 returned Arbovirus anti -3, RecA splice inh 0.1, YopH inh -27, Mtb H37Rv 2% and Mtb bLac sens -1.
CC1Cc2nc(SCC(=O)NCC3CCCO3)n(-c3ccc(F)cc3)c(=O)c2S1 (stereo unspecified) was read as RecA splice inh -2.7 and Mtb bLac sens 9.
Screening O=C(O)CCC(C(=O)O)n1c(O)c(C2=c3ccccc3=NC2=O)sc1=S (stereo unspecified) returned Arbovirus anti 4, RecA splice inh 3.1, YopH inh -36, Mtb H37Rv -10%, Mtb bLac sens 0 and Arbovirus anti repeat 4.
For CCOC(=O)Cc1csc(N/N=C/c2ccccc2)n1 the results were Arbovirus anti -14, RecA splice inh -0.7, YopH inh -18, Mtb H37Rv 4% and Mtb bLac sens 47.
COc1ccc(C)cc1NC(=O)CCNS(=O)(=O)c1cccc2nonc12 was read as RecA splice inh -1.2 and Mtb bLac sens 0.
For CC(/C=C/c1ccc2c(c1)OCO2)=N/NC(=O)CNc1ccc(C)cc1 the results were RecA splice inh -8.8, YopH inh -18, Mtb H37Rv 5% and Mtb bLac sens 6.
For O=C(CSc1nnnn1-c1cccc2c1CCCC2)NC1CCCC1 the results were Arbovirus anti 6, RecA splice inh 4.5, YopH inh -4, Mtb H37Rv -7% and Mtb bLac sens -7.
`CCC(C)n1c(SC(C)C#N)nc2ccccc2c1=O` (stereo unspecified) gave Arbovirus anti 1, RecA splice inh 3.6, YopH inh -24, Mtb H37Rv -3% and Mtb bLac sens -5.
Cc1ccc(C(=O)NCc2ccc3c(c2)OCO3)cc1N1CCCC1=O was read as Arbovirus anti -7, RecA splice inh -0.7, YopH inh -53, Mtb H37Rv 5%, Mtb bLac sens -1 and Arbovirus anti repeat -1.
Screening CC(=O)Nc1ccc(S(=O)(=O)NCCSCc2cccc(Cl)c2)cc1 returned Arbovirus anti -10, RecA splice inh 3.2, YopH inh -38, Mtb H37Rv 13% and Mtb bLac sens 8.
CC1=NN(Cc2cc(C(C)(C)C)c(O)c(C(C)(C)C)c2)C(=O)C1 was read as RecA splice inh 12 and Mtb bLac sens -11.
Screening O=C(Nc1ccc(-c2cn3ccccc3n2)cc1)c1cccs1 returned Arbovirus anti -10, RecA splice inh -12, Mtb H37Rv 5% and Mtb bLac sens 2.
`COc1cccc(-c2nc3ccc(O)cc3c(=O)o2)c1` gave Arbovirus anti -3, YopH inh -39, Mtb H37Rv 35% and Mtb bLac sens 73.
Screening O=C(CN(c1ccccn1)S(=O)(=O)c1ccccc1)N/N=C/c1cccc([N+](=O)[O-])c1 returned Arbovirus anti 2, RecA splice inh -2.6, YopH inh -38, Mtb H37Rv 7% and Mtb bLac sens 9.
Screening CCOc1ccc(NC(C)C(=O)N/N=C/c2ccc([N+](=O)[O-])cc2)cc1 (stereo unspecified) returned Arbovirus anti 5, RecA splice inh -1.9, Mtb H37Rv -9% and Mtb bLac sens 3.
Screening Cc1ccc(NC(=O)c2cc(=O)c3ccccc3o2)cc1 returned Arbovirus anti 3, RecA splice inh -2.0, YopH inh -42, Mtb H37Rv -8% and Mtb bLac sens -17.
Screening NC1=NCC(O)=C1c1nc2ccccc2[nH]1 returned Arbovirus anti 3, RecA splice inh 0.8, Mtb H37Rv 5% and Mtb bLac sens 2.
COc1ccc(N2CCN(C(=O)c3cc([N+](=O)[O-])ccc3N3CCN(CCO)CC3)CC2)cc1 was read as RecA splice inh -0.9 and Mtb bLac sens 1.
COc1cc(C(=O)NCC(c2cccnc2)N2CCN(c3ccc(F)cc3)CC2)cc(OC)c1OC (stereo unspecified) was read as Arbovirus anti 0, RecA splice inh -0.9, Mtb H37Rv 0% and Mtb bLac sens 0.
Screening C[C@H]1CCC[C@]2(O[C@@H](CCO)C[C@H](O)[C@H]2O)O1 returned Arbovirus anti 5, RecA splice inh -0.7, YopH inh -34, Mtb H37Rv -5% and Mtb bLac sens -6.
COCCn1c(N)c(N(Cc2ccccc2)C(=O)Cc2c(Cl)cccc2Cl)c(=O)[nH]c1=O was read as Arbovirus anti 6, RecA splice inh -8.1, Mtb H37Rv 6% and Mtb bLac sens -4.
For Cc1ccc(-c2cc(C(=O)Nc3ccc(S(=O)(=O)Nc4nc(C)cc(C)n4)cc3)c3ccccc3n2)cc1 the results were Arbovirus anti -9, RecA splice inh 9.7, YopH inh -23, Mtb H37Rv inconclusive and Mtb bLac sens 68.
Screening Cc1cc([N+](=O)[O-])c(-c2ccc(/C=N/n3cnnc3)o2)cc1Cl returned Arbovirus anti -8, RecA splice inh 19, YopH inh -16, Mtb H37Rv 7% and Mtb bLac sens inconclusive.
Screening COc1ccc(C(=S)N2CCOCC2)cc1OS(=O)(=O)c1ccccc1[N+](=O)[O-] returned Arbovirus anti 13, RecA splice inh -5.9, YopH inh -26, Mtb H37Rv -3% and Mtb bLac sens 0.
Screening Cc1cc(NC(=O)CCC(=O)N(Cc2cccs2)C(C)(C)C(=O)NC2CCCCC2)no1 returned RecA splice inh 0.9 and Mtb bLac sens 15.
Screening Cc1cc(/C(O)=C2\C(=O)C(=O)N(CCN(C)C)C2c2ccncc2)ccc1OCc1ccccc1 (stereo unspecified) returned Arbovirus anti 2, RecA splice inh 8.9, YopH inh -21, Mtb H37Rv 11% and Mtb bLac sens -8.
`Cn1ncc2c(NNC(=O)c3ccccc3Cl)ncnc21` gave Arbovirus anti -10, RecA splice inh 3.4, YopH inh -11, Mtb H37Rv -1% and Mtb bLac sens -1.
`Cc1cc(C)nc(NC2=NCC(=O)N2CCc2c[nH]c3ccccc23)n1` gave Arbovirus anti 10, RecA splice inh -0.2, YopH inh -12, Mtb H37Rv -13% and Mtb bLac sens -1.
For O=C(CNS(=O)(=O)c1ccccc1)NCC(=O)OCc1ccc(C(=O)c2ccccc2)cc1 the results were Arbovirus anti -10, RecA splice inh 7.8, YopH inh -28, Mtb H37Rv 6% and Mtb bLac sens 3.
Screening CCn1ncc([N+](=O)[O-])c1C(=O)Nc1c(C)cccc1C returned RecA splice inh -0.5 and Mtb bLac sens 4.
Screening CCOC(=O)c1c(C)[nH]c(C(=O)COC(=O)c2ccc(O)cc2O)c1C returned RecA splice inh -2.0, Mtb H37Rv 1% and Mtb bLac sens 2.
Screening Cc1ccc(-c2nnc(NC3CCCCC3)c3ccccc23)cc1S(=O)(=O)N1CCN(C)CC1 returned Arbovirus anti -20, RecA splice inh 2.2, YopH inh -8, Mtb H37Rv 78% and Mtb bLac sens 35.
Screening O=C(Nc1ccc(F)cc1)Nc1ccc(N2CCOCC2)c2nonc12 returned Arbovirus anti -13, RecA splice inh 6.5, Mtb H37Rv -3% and Mtb bLac sens -4.
Screening COc1cc(CCCN2C(=O)C(=O)NC[C@@H]2CC2CCCCC2)cc(OC)c1OC returned RecA splice inh -0.8 and Mtb bLac sens -3.

Of the compounds above, five have two or more sulfur atoms:
`Cc1occc1-c1nnc(SCC(=O)Nc2nc3ccccc3s2)o1` gave Arbovirus anti -12, RecA splice inh -0.9, YopH inh -14, Mtb H37Rv -3% and Mtb bLac sens 5.
CC1Cc2nc(SCC(=O)NCC3CCCO3)n(-c3ccc(F)cc3)c(=O)c2S1 (stereo unspecified) was read as RecA splice inh -2.7 and Mtb bLac sens 9.
Screening O=C(O)CCC(C(=O)O)n1c(O)c(C2=c3ccccc3=NC2=O)sc1=S (stereo unspecified) returned Arbovirus anti 4, RecA splice inh 3.1, YopH inh -36, Mtb H37Rv -10%, Mtb bLac sens 0 and Arbovirus anti repeat 4.
Screening CC(=O)Nc1ccc(S(=O)(=O)NCCSCc2cccc(Cl)c2)cc1 returned Arbovirus anti -10, RecA splice inh 3.2, YopH inh -38, Mtb H37Rv 13% and Mtb bLac sens 8.
Screening COc1ccc(C(=S)N2CCOCC2)cc1OS(=O)(=O)c1ccccc1[N+](=O)[O-] returned Arbovirus anti 13, RecA splice inh -5.9, YopH inh -26, Mtb H37Rv -3% and Mtb bLac sens 0.

Only part of the results is shown; the hit share may differ from the screen's.
